# Source: PubChem (several laboratories)
# RN4220 kill: S. aureus RN4220 growth inhibition; 330,000 compounds, 0.33% hits; OD600, 16 h; inhibition, % (concentration not given with the values); AID 1259311;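 active = z-score of -3 or lower and OD600 up to 0.18 on both plates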;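 also: plate controls were untreated cells for no effect and reference antibiotic for full effect; stock transfer was 100 nL into about 80 µL; one replicate is shown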
# BJeLR lethal: BJeLR cell viability loss; BJeLR (HRASV12) viability, CellTiter-Glo ATP luminescence, 48 h; reference of the scale not given here; inhibition, % (test concentration not listed); 300,000 compounds, 0.17% hits; AID 1554;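 active = replicate mean above 50%; inconclusive = above 50% but judged a plate artefact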;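 also: 50 nL library stock added to about 25 µL; numbers are from one replicate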
# Mtb hypoxia rep: Mtb hypoxia fluorescent reporter inhibition | M. tuberculosis hypoxia-regulated fluorescent reporter, fluorescence | fluorescence inhibition, % (test concentration not listed) | 300,000 compounds, 0.1% hits;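 active = 35 to 45% if threefold the growth effect, above 45% if 1.5-fold the growth effect; inactive = the rest, general growth blockers included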;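 also: wells of about 50 µL received 100 nL stock; 0% = vehicle wells and 100% = reference inhibitor wells; whole bacteria with a GFP reporter of the hypoxia response; strong numbers were not always called active; many hits fall short of the cut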
# Bead autofluor: counter-screen for toxin protease inhibitors: compound fluorescence. compound autofluorescence counterscreen, microsphere flow cytometry; stronger effect = higher value. fluorescence intensity (concentration not given with the values). 360,000 compounds, 3.1% hits. AID 624483;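 active = at least 3 SD above the mean of all compounds, about 16000 in these data; inconclusive = too few beads counted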;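 also: 100 nL of 1 mM stock went into each well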
# PrP UTR inh: inhibition of PrP 5' UTR reporter expression; 340,000 compounds, 0.35% hits; inhibition, % (no concentration beside the values); cell-based PrP 5' UTR mRNA reporter, plate reader;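 active = every replicate at 50% or more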;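 also: 0 = median of the neutral control wells; tested in H4 reporter cells; numbers are from one replicate; inactives centre near -14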
# Sa ugtP lethal: kills S. aureus RN4220 lacking UgtP; S. aureus RN4220 ugtP deletion, OD600 growth, 16 h; some inactives read as strong as hits; 330,000 compounds, 0.54% hits; AID 1259309; growth inhibition, % (test concentration not listed);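 active = z-score under -3 and OD600 up to 0.15 on both plates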;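 also: plate controls were untreated wells for no effect and antibiotic for full effect; wells of about 80 µL received 100 nL stock; the first replicate is given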
# Mtb hypoxia rep growth: further read-out of Mtb hypoxia rep, marked with its call; growth inhibition, %; measured here: M. tuberculosis growth (absorbance);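 0% = vehicle and 100% = reference antibiotic; read after six days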
# An asterisk follows results filed as active; ? = inconclusive; . = not tested or not shown; & = joins results of further samples.
SMILES,RN4220 kill,BJeLR lethal,Mtb hypoxia rep,Mtb hypoxia rep growth,Bead autofluor,PrP UTR inh,Sa ugtP lethal
c1cnc2c(c1)ccc1ncccc12,1.0,-6,-2,7,3281,-10&-34,2
CC(C)C(CO)NC(=O)CC(=O)NC(CO)C(C)C (configuration not stated),-4.7,-4,-3,10,8744,0,-1
Cc1cc(C)c(NS(=O)(=O)c2ccc(NC(=O)CCC(=O)O)cc2)c(C)c1,2.2,2,7,0,4279,-11,4
COCCNC(=O)c1ccc(Cl)c(Cl)c1,-0.5,-16,15,1,8433,.,0
CN(C)S(=O)(=O)c1ccc(Cl)c(NC(=O)c2ccncc2)c1,5.8,-4,5,8,2403,-8,1
O=C(Cc1ccc(Cl)cc1)NCC(=O)N1CCCCC1,17,-4,5,8,3143,-18,2
O=[N+]([O-])c1cccc(-c2ccc(/C=N/Nc3nc(N4CCCCC4)nc(N4CCCCC4)n3)o2)c1,.,6,.,.,2872,-15,.
CC1(C)OC1COc1c2occc2cc2ccc(=O)oc12 (configuration not stated),.,-4,.,.,3689,-16,.
CC(C)Oc1ccc(C(=O)N(Cc2ccco2)C2CCS(=O)(=O)C2)cc1 (configuration not stated),0.9,-13,7,-1,9064,-20,7
COc1ccc(-c2coc3cc(OC)cc(OC)c3c2=O)cc1,-1.2,0,.,.,5504,-57,2
COC(=O)NN=Cc1cn(Cc2ccc(Cl)cc2Cl)c2ccccc12,-0.5,.,-1,-3,.,.,-16
O=C1[C@H]2[C@@H](/C=C/c3ccccc3)N3C(=O)CN(CC4CC4)C(=O)[C@@]3(Cc3ccccc3)[C@H]2C(=O)N1c1ccccc1,.,1,.,.,3628,-14,.
CC(=O)Nc1cc(C(=O)N2CCC3(CC2)OCCO3)ccc1S(=O)(=O)c1ccc(C)cc1,7.4,-12,12,6,3450,-2,-5
COc1ccccc1N1CCN(C(=O)c2cc(=O)c3cc(C)cc(C)c3o2)CC1,1.7,59*,3,4,3788,73*,-1
Cc1ccc(/C=N/N2CCN(C3c4ccccc4-c4ccccc43)CC2)s1,.,-8,.,.,1916,-22,.
COc1cccc(N2CCN(Cc3cccnc3)CC2)c1,2.4,0,2,-1,20710*,-10,2
CCN(CC)CCNS(=O)(=O)c1ccc2c3c(cccc13)C(=O)N2,1.6,-8,2,-4,3923,-10,6
Cc1cccc(C(=O)NCC2CCN(C(=O)c3cccc(C)c3)CC2)c1,2.9,-5,10,-1,5935,-6,9
O=C(N/N=C/c1cc(Br)cs1)c1c[nH]c2ccccc12,.,5,.,.,4046,-21,.
O=S1(=O)CCOCCCN1Cc1cccc(F)c1,5.7,6,10,17,3520,-4,2
CCOC(=O)C(C)Sc1ccc2nnc(CCNS(=O)(=O)c3ccccc3)n2n1 (configuration not stated),5.0,2,0,4,4145,-17,0
Cc1cccc(S(=O)(=O)NNC(=O)c2sc(C)nc2C)c1,7.0,9,-8,-5,2472,-21,1
COc1ccc(NC(=O)Cn2c3ccccc3c3nc4n(c(=O)c32)CCS4)cc1,-3.0,-19,10,5,4493,4,3
O=C(CN1CCN(Cc2ccccc2)CC1)N/N=C/C=C/c1ccco1,.,2,.,.,1951,0,.
CN1C(C(=O)N2CCC3(CC2)OCCO3)=CC(c2ccc(F)cc2)=NS1(=O)=O,0.7,-3,-1,-4,5305,-5,3
CCc1ccc(S(=O)(=O)NCCc2cn3ccccc3n2)s1,14,-8,1,5,2347,-20,9
Cc1cccc(NC(=O)CSc2nccn2Cc2ccco2)c1,3.3,-10,11,5,4327,-16,9
COCCNC(=O)CN1c2ccccc2CC1C (configuration not stated),0.6,-5,.,.,4154,-20,3
CC(NC(=O)CCNS(=O)(=O)c1ccccc1)c1ccccc1 (configuration not stated),1.1,-5,3,2,4158,-10,-1
CCNCc1ccc(OCc2cccs2)c(OCC)c1,6.9,6,13,7,3113,-16,2
CCOC(=O)N1CCC(NC(=O)CSCc2nc(-c3ccc(C)cc3)oc2C)CC1,1.2,0,6,-1,5109,-26,2
CC1C2Cn3c(nc4ccccc43)C1N(C(C)C)O2 (configuration not stated),4.3,-6,4,7,3540,-17,0
Cc1ccc2cc3c(nc2c1)N(Cc1ccco1)CC3,9.0,2,.,.,5317,-43,2
CCOc1ccc(NC(=O)C2CCCN(S(=O)(=O)c3c(C)nn(C)c3C)C2)cc1 (configuration not stated),-0.5,10,.,.,4486,-6,-3
O=C(O)c1ccc(C=C2SC(=Nc3ccccc3)N(c3ccccc3)C2=O)cc1,6.2,.,5,-2,.,.,8
CCN1CCN(C(=S)Nc2ccsc2C(=O)OC)CC1,5.0,5,0,4,.,-10,12
Nc1ccccc1C(=O)N1CCC(O)(c2ccc(Cl)cc2)CC1,4.5,6,2,6,3768,-17,5
O=C(Oc1c(-c2ccccc2)c(=O)n2c3c(cccc13)CC2)c1ccc(Cl)cc1,6.4,-7,12,14,3798,-21,-11
Oc1cccc(C=NNc2cc(N3CCOCC3)nc(N3CCOCC3)n2)c1,2.8,.,-3,7,.,.,-5
O=C(NC(=S)NNS(=O)(=O)c1ccc(Cl)cc1)c1cccnc1,5.8,1,2,8,4392,-12,-4
COc1ccccc1NS(=O)(=O)c1cccc(NC(=O)Nc2ccc(Cl)cc2)c1,34,7,13,3,2165,-12,39
Cc1cccc(NC(=O)CSc2nc3nc(C)cc(C)n3n2)c1,1.7,-6,10,11,5136,-5,5
O=C(Nc1ccc2c(c1)OCCO2)C1CCCN(c2ncccn2)C1 (configuration not stated),1.9,-7,-4,2,6182,-30,-1
Cc1cc(OC(C)C(=O)N/N=C/CC(C)c2ccccc2)ccc1Cl (configuration not stated),.,-3,.,.,3232,0,.
CCOC(=O)c1ccccc1NC(=O)Cc1ccc(S(=O)(=O)N2CCCC2)s1,4.5,.,12,7,3558,-15,10
CC(C)(C)C(C(=O)O)N1CCS(=O)(=O)CC1 (configuration not stated),8.7,-9,-7,7,4340,-11,6
O=C(N/C=C/c1ccccc1)Nc1ccc(Cl)cc1,-21,11,.,.,3159,-15,-10
COCC(C)N1CCC(n2nccc2NC(=O)c2ccccc2Cl)CC1 (configuration not stated),1.8,10,7,9,5408,-8,7
O=S(=O)(Nc1ccc(Cc2ccncc2)cc1)c1ccc(Cl)s1,0.7,2,-5,-10,2786,-17,-5
Cc1ccc(C(=O)n2cnc3ccccc32)cc1C,-0.8,-4,-5,-5,3692,-10,-7
COC(=O)c1cc(NCc2c(F)cccc2Cl)ccc1N1CCOCC1,1.6,12,-5,0,10081,-33,1
O=C(NC(C(=O)O)c1ccccc1)c1ccc(S(=O)(=O)N2CCOCC2)cc1 (configuration not stated),5.6,0,11,8,9803,-18,6
CC1CN(C(C)CO)C(=O)c2cccc(NC(=O)Nc3ccc(C(F)(F)F)cc3)c2OC1CN(C)C(=O)Nc1ccc(F)cc1 (configuration not stated),-10,.,2,10,.,.,20
Cc1nc(NC(=O)C2CCCC2)sc1Cc1ccc2c(c1)OCO2,7.6,-3,-5,-2,2542,-18,3
CC(=O)N1c2c(cc(Br)cc2S(=O)(=O)N2CCN(C(=O)c3ccco3)CC2)CC1C (configuration not stated),4.4,5,1,11,9095,-14,1
CCOc1ccccc1C(=O)NN=Cc1coc2ccc(C)cc2c1=O,1.0,.,6,12,.,.,1
COc1cc(CNn2nnnc2N)ccc1OCC(=O)NC(C)(C)C,7.0,-2,2,11,23140*,-21,-4
Cc1cc2nc(C)n(CCCNC(=O)Nc3cccc4ccccc34)c2cc1C,3.8,5,14,11,8544,-16,1
CCOc1ccc2c(c1)c(N=Nc1cccc(C(=O)O)c1)c(O)n2C,22,-10,3,3,2444,-13,-7
O=C(Nc1cccc(NC(=O)c2ccccc2Cl)c1)c1ccco1,2.6,-5,10,6,5415,-11,1

# Entries of single compounds, quoted from the list.
# O=C(NC(C(=O)O)c1ccccc1)c1ccc(S(=O)(=O)N2CCOCC2)cc1 (configuration not stated) is entered as RN4220 kill: 5.6; BJeLR lethal: 0; Mtb hypoxia rep: 11; Mtb hypoxia rep growth: 8; Bead autofluor: 9803; PrP UTR inh: -18; Sa ugtP lethal: 6
# O=C(N/C=C/c1ccccc1)Nc1ccc(Cl)cc1 is entered as RN4220 kill: -21; BJeLR lethal: 11; Mtb hypoxia rep: .; Mtb hypoxia rep growth: .; Bead autofluor: 3159; PrP UTR inh: -15; Sa ugtP lethal: -10
# Cc1nc(NC(=O)C2CCCC2)sc1Cc1ccc2c(c1)OCO2 is entered as RN4220 kill: 7.6; BJeLR lethal: -3; Mtb hypoxia rep: -5; Mtb hypoxia rep growth: -2; Bead autofluor: 2542; PrP UTR inh: -18; Sa ugtP lethal: 3

# Continuation:
SMILES,RN4220 kill,BJeLR lethal,Mtb hypoxia rep,Mtb hypoxia rep growth,Bead autofluor,PrP UTR inh,Sa ugtP lethal
Cc1ccc(/C=C/C(=O)Nc2cc(S(=O)(=O)N3CCOCC3)ccc2N2CCOCC2)cc1,1.3,.,-11,-3,8770,-6,-1
CC(=O)C1CCC2C3CCC4CC(O)CCC4(C)C3C(O)CC12C (configuration not stated),12,.,6,9,3532,-5,1
O=C(NC1CCCCC1)c1ccc(N2CCCC2=O)cc1,4.2,8,.,.,3541,-32,5
COC(=O)c1cn(C(=O)c2ccc(C)cc2)c2ccccc12,5.6,5,1,-1,2725,-16,12
CCOc1ccc(NC(=O)c2cc3ccccc3cc2OC)cc1,2.0,4,9,18,3321,-23,9
CCN(CC)c1ccc(NC(=O)Nc2cccc(C(C)=O)c2)cc1,0.3,2,-9,-4,19762*,14,-9
CC(Sc1nnc(C2CC2)n1C1CC1)C(=O)NCc1cccs1 (configuration not stated),3.6,.,7,4,?,-15,7
COc1cccc(C(=O)Nc2ccc(C(=O)NCC3CCCO3)cc2)c1 (configuration not stated),2.0,-3,14,1,4391,-6,0
COc1ccc(/C(O)=C/Sc2nnc(Cc3ccccc3)o2)cc1,-7.4,-3,-11,-1,24165*,-15,1
CCc1nnc(NC(=O)CSc2nnc(-c3cc4ccccc4cc3O)n2CCOC)s1,5.7,-2,6,10,6156,-30,6
COc1ccc(NC2=Nc3ccccc3N3C2=Nc2c(c(C)nn2-c2ccc(C)cc2)C3c2cccnc2)cc1 (configuration not stated),18,.,-14,-1,15892,-2,60
Cc1cccc2sc(NC(=O)C3CCCN(S(=O)(=O)c4cccc5nonc45)C3)nc12 (configuration not stated),-0.2,4,.,.,5192,-4,-4
CCOc1ccc(S(=O)(=O)NCCC(=O)OCN2C(=O)c3ccccc3C2=O)cc1,0.8,-1,5,11,8624,5,-2
COc1ccc(CCCNC(=O)C2CCC(=O)N(CCc3cccc(F)c3)C2)cc1 (configuration not stated),-4.2,-7,3,15,5773,-6,2
CC1CCN(CCC(=O)NN)CC1,8.6,-10,-4,0,3247,-5,17
N#CCC(=O)Nc1ccc(C(=O)N2CCN(S(=O)(=O)c3ccc4ccccc4c3)CC2)cc1,0.3,2,-1,5,3442,-16,13
COc1cccc(NC(=O)C2CC(=O)OC23CCOC(C)(C)C3)c1 (configuration not stated),-6.3,0,2,-1,2504,-2,-3
CCOC(=O)C1CCN(C(=O)c2c(C)oc3c2C(=O)c2ccccc2C3=O)CC1,20,6,5,7,5150,-24,20
Cc1nnc(NC(=O)Oc2ccccc2)s1,1.3,-3,0,3,9085,-10,-7
O=C(NCCC(=O)N1CCN(c2ccccn2)CC1)c1ccc(Cl)cc1,11,.,7,8,8350,0,9
Cc1cccc(N(C(=O)CNC(=O)c2cccs2)C(C(=O)NC2CCCC2)c2cccnc2)c1 (configuration not stated),-1.6,7,3,-8,9238,9,-1
CNC(=O)N(O)C1N(NC(=O)Nc2ccccc2)C(=S)SC1(C)C (configuration not stated),3.0,7,14,14,3941,-17,3
Cc1ccc(NC(=O)CN2C(=O)S/C(=C/c3ccc(O)c([N+](=O)[O-])c3)C2=O)cc1C,1.8,.,8,8,4581,-17,0
CCOC(=O)C1CCCN(S(=O)(=O)c2cccs2)C1 (configuration not stated),-2.2,0,2,3,9085,-10,-9
COc1cccc(-c2nc(N3CCCCC3)c3ccccc3n2)c1O,10,-12,4,7,5096,-23,12

# Arranged by molar mass (falling): part of the list above.
SMILES,RN4220 kill,BJeLR lethal,Mtb hypoxia rep,Mtb hypoxia rep growth,Bead autofluor,PrP UTR inh,Sa ugtP lethal
Cc1ccc(NC(=O)CN2C(=O)S/C(=C/c3ccc(O)c([N+](=O)[O-])c3)C2=O)cc1C,1.8,.,8,8,4581,-17,0
CCOC(=O)C1CCCN(S(=O)(=O)c2cccs2)C1 (configuration not stated),-2.2,0,2,3,9085,-10,-9
Cc1nnc(NC(=O)Oc2ccccc2)s1,1.3,-3,0,3,9085,-10,-7
